Rac1 act GTP bind = GTP binding modulators of activated mutant Rac1, primary screen, biochemical, bead-based flow cytometry, multiplex, fluorescent GTP; Ras-related C3 botulinum toxin substrate 1 (Homo sapiens), P63000; 0.11% of 190,000 active; GST-Rac1 activated beads; actives lie on both sides; 100% means binding = to untreated wells; percent activity (GTP binding), % at 10 µM;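 active = GTP binding at least 20 percentage points away from the 100% baseline, in either direction, so actives lie on both sides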
Rac1 wt GTP bind = wildtype Rac1 GTP binding modulators, primary screen, biochemical, GST-Rac1 beads, flow cytometry, multiplex; Ras-related C3 botulinum toxin substrate 1 (Homo sapiens), P63000; AID 757, 2007; fluorescent GTP binding; actives lie on both sides; 0 = cold GTP competed, 100 = untreated; GTP binding activity (% of control), % at 10 µM; 0.27% of 190,000 active;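 active = GTP binding activity at least 20 points away from the 100% control level, either lower or higher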
HRas wt GTP bind = modulators of GTP binding to HRas wildtype, primary screen, biochemical, bead-based flow cytometry, multiplex; GTP binding activity, % at 10 µM; GST-Ras wt beads, Bodipy-FL-GTP binding; actives lie on both sides; 0.14% of 190,000 active; AID 759, 2007;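 active = GTP binding activity at least 20% away from the 100% baseline, either lowered as inhibitor or raised as activator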;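 note: 0% = unlabeled GTP competition control and 100% = no-compound control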
Target sequence (P01112 whole entry, looked up): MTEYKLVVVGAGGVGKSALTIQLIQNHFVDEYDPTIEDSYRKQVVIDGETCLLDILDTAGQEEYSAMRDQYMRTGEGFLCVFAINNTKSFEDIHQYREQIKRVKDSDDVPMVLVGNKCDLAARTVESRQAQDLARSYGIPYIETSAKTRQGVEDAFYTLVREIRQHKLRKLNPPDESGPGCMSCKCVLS
Rab7 wt GTP bind = modulators of GTP binding to Rab7, primary screen, biochemical, wildtype, multiplex bead flow cytometry | Rab7 GTPase wild type (dog), Bodipy-FL-GTP binding | GST-Rab7 beads, fluorescent GTP binding; actives lie on both sides; untreated = 100%, excess cold GTP = 0% | GTP binding activity (percent of control), % at 10 µM | 0.055% of 190,000 active | AID 758, 2007;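 active = fluorescent GTP binding to Rab7 beads changed by at least 20 points from the 100% baseline, either direction, mostly lower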;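 note: median green fluorescence of bound Bodipy-FL-GTP per Rab7 bead population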
Rab2 wt GTP = modulators of GTP binding to Rab2A wildtype, primary screen, biochemical, dog, bead-based flow cytometry, multiplex; GST-Rab2 wt beads, Bodipy-GTP binding; 0.19% of 190,000 active; AID 760, 2007; Ras-related protein Rab-2A (Canis lupus familiaris), P61105; GTP binding activity, % at 10 µM;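 active = GTP binding activity at least 20 points away from 100%, either lowered or raised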;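 note: 0% = beads with excess unlabeled GTP and 100% = no-compound control corrected for plate trend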
Cdc42 wt = modulators of GTP binding to wildtype Cdc42, primary screen, biochemical, multiplex bead flow cytometry, Bodipy-GTP. Cell division control protein 42 homolog (Homo sapiens), P60953. GST-Cdc42 beads; actives lie on both sides. percent activity (GTP binding), % at 10 µM. 0.2% of 190,000 active;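 active = percent activity GTP binding at least 20 points away from the 100% baseline, either down as inhibitor or up as activator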;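 note: median bead fluorescence of bound Bodipy-FL-GTP at 100 nM; 0% = excess unlabeled GTP control and 100% = no compound control; below 100% means less GTP binding so inhibitor and above means activator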
Target sequence (P60953 whole entry, looked up): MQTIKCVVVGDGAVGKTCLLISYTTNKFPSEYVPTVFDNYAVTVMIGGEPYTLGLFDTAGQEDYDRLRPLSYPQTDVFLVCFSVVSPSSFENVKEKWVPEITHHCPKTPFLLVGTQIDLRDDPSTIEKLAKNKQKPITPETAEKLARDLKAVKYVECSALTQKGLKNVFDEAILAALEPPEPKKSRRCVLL
Starred values were filed as active, the others as inactive; / = no result given; & = joins results of further samples.

Results follow in this order: Rac1 act GTP bind, Rac1 wt GTP bind, HRas wt GTP bind, Rab7 wt GTP bind, Rab2 wt GTP, Cdc42 wt
Cc1onc(-c2ccccc2Cl)c1C(=O)NCc1ccco1
  101.0, 106.0, 102.0, 104.0, 101.0, 101.0
C=CCOc1ccc(/C=N/NC(=O)CN2CCOCC2)cc1OCC
  97.0, 98.0, 101.0, 105.0, 101.0, 98.0
O=C(O)COCCN1CCN(C(c2ccccc2)c2ccc(Cl)cc2)CC1 (stereo not given)
  100.0, 104.0, 98.0, 98.0, 97.0, 101.0
CCOc1ccc2c(c1)/C(=C(\C(Cl)=C(Cl)Cl)[N+](=O)[O-])N2
  93.0, 97.0, 97.0, 101.0, 96.0, 94.0
Cc1ccc(/C=C(\C#N)C(=O)Nc2cccc3ncccc23)o1
  100.0, 104.0, 101.0, 100.0, 98.0, 101.0
COc1ccc2c(c1)c1nc3ccccc3nc1n2Cc1ccc(OC(C)C)c(OC)c1
  99.0, 100.0, 100.0, 96.0, 100.0, 98.0
CC(C(=O)O)c1cccc(C(=O)c2ccccc2)c1 (stereo not given)
  /, /, 103.0, 100.0, 103.0, 105.0
Cc1sc2ncnc(SCC(=O)N3CCN(C(=O)c4ccco4)CC3)c2c1C
  100.0, 102.0, 99.0, 99.0, 99.0, 102.0
O=c1[nH]c2ccc(N=Cc3c(O)ccc4cc(Br)ccc34)cc2[nH]1
  98.0, 101.0, 100.0, 101.0, 102.0, 100.0
N#Cc1ccccc1CSc1nc(O)cc(=O)[nH]1
  100.0, 101.0, 102.0, 103.0, 102.0, 101.0
CC1(C)Cc2c(C#N)c(N3CCN(C(=O)c4ccco4)CC3)nc(-c3ccco3)c2CS1
  99.0, 103.0, 100.0, 99.0, 101.0, 98.0
COc1cc(Cc2cnc(N)nc2N)cc(OC)c1OC
  100.0&102.0, 102.0&102.0, 99.0&102.0, 96.0&98.0, 99.0&102.0, 100.0&100.0

In a second layout: entries from further up.
SMILES	Rac1 act GTP bind	Rac1 wt GTP bind	HRas wt GTP bind	Rab7 wt GTP bind	Rab2 wt GTP	Cdc42 wt
C=CCOc1ccc(/C=N/NC(=O)CN2CCOCC2)cc1OCC	97.0	98.0	101.0	105.0	101.0	98.0
O=C(O)COCCN1CCN(C(c2ccccc2)c2ccc(Cl)cc2)CC1 (stereo not given)	100.0	104.0	98.0	98.0	97.0	101.0
CCOc1ccc2c(c1)/C(=C(\C(Cl)=C(Cl)Cl)[N+](=O)[O-])N2	93.0	97.0	97.0	101.0	96.0	94.0
Cc1ccc(/C=C(\C#N)C(=O)Nc2cccc3ncccc23)o1	100.0	104.0	101.0	100.0	98.0	101.0
COc1ccc2c(c1)c1nc3ccccc3nc1n2Cc1ccc(OC(C)C)c(OC)c1	99.0	100.0	100.0	96.0	100.0	98.0
CC(C(=O)O)c1cccc(C(=O)c2ccccc2)c1 (stereo not given)	/	/	103.0	100.0	103.0	105.0
Cc1sc2ncnc(SCC(=O)N3CCN(C(=O)c4ccco4)CC3)c2c1C	100.0	102.0	99.0	99.0	99.0	102.0
O=c1[nH]c2ccc(N=Cc3c(O)ccc4cc(Br)ccc34)cc2[nH]1	98.0	101.0	100.0	101.0	102.0	100.0
N#Cc1ccccc1CSc1nc(O)cc(=O)[nH]1	100.0	101.0	102.0	103.0	102.0	101.0

Screens as filed in PubChem BioAssay.

Not all compounds are listed (hit frequency here may not be typical).
